# Ecoli rRNA inh = selective bacterial rRNA inhibition in E. coli | E. coli WT GFP vs humanized-ribosome RFP mutants, fluorescence, 24 h; hits give low values; DMSO median 0, no signal -100 | 350,000 tested, 1.6% active | GFP signal change (wild-type ribosome), % (no concentration beside the values);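 active means significant combined selectivity score with lowered wild-type GFP, culture density cut under 30%, mutant RFP and density less affected; inactive means any of these conditions unmet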; further: one replicate is shown; some compounds called inactive have numbers as strong as hits
# FGF22 binding = shifts melting point of recombinant human FGF22; recombinant FGF22 thermal shift, SYPRO orange fluorescence; percent of sucrose octasulfate shift, DMSO zero; AID 651658; calls only at 9.99 µM; 340,000 tested, 1.5% active; Q9HCT0;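 active means melting point raised past a set limit in the mean and every replicate; three in four hits are not shown here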
# Target sequence (Q9HCT0 whole entry, looked up): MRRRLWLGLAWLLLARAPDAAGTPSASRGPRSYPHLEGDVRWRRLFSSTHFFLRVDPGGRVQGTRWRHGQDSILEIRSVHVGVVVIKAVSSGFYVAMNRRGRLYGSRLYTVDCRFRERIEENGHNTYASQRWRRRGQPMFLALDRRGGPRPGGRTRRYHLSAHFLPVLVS
# Ecoli rRNA inh OD600 = recorded beside Ecoli rRNA inh, whose call it bears; OD600 change, %; measured here: OD600 growth;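 optical density of the mix in the first replicate; 0 = DMSO median and -100 = no signal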
# Ecoli rRNA inh RFP = recorded beside Ecoli rRNA inh, whose call it bears; RFP signal change, %; measured here: RFP humanized mutant strains;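 first replicate; 0 = DMSO median and -100 = no signal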
# An asterisk follows results filed as active; i = inactive; & = joins results of further samples. Not all compounds are listed; count on the stated rates, not on these rows.
Ecoli rRNA inh | Ecoli rRNA inh OD600 | Ecoli rRNA inh RFP | SMILES | FGF22 binding
-5.0 | -8.0 | 6.6 | O=C(NCC[C@H]1CC[C@H](NS(=O)(=O)c2ccc(Cl)cc2)[C@@H](CO)O1)Nc1ccc(F)cc1 | i
1.0 | 11.3 | 3.3 | O=S(=O)(c1cccs1)N1CCCCN2[C@H](C1)[C@@H](c1ccc(/C=C/c3ccccc3)cc1)[C@@H]2CO | i
5.1 | 6.3 | -2.2 | C/C=C/c1ccc([C@@H]2[C@@H](CN(C)S(C)(=O)=O)N(C(C)=O)[C@H]2CO)cc1 | i
-0.5 | -3.7 | 0.3 | O=C(C1CCOCC1)N1CC(=O)N2[C@H](CO)[C@@H](c3ccc(/C=C/c4ccccc4)cc3)[C@@H]2C1 | i
-7.7 | -7.0 | 2.9 | COC(=O)C[C@@H]1CC[C@H]2[C@H](COc3ccc(NC(=O)Nc4cccc(C#N)c4)cc3C(=O)N2C)O1 | i
-9.0 | -2.4 | -4.7 | COc1ccc(NC(=O)N2CC[C@@H]3[C@H]2c2cc(C4=CCCCC4)ccc2N(C)[C@H]3CO)cc1 | i
3.8 | 3.0 | 0.2 | Cc1noc(C)c1NC(=O)N(C)C[C@@H]1Oc2ccc(NC(=O)c3ccncc3)cc2C(=O)N([C@H](C)CO)C[C@H]1C | i
0.9 | -3.2 | 1.3 | O=C(c1ccccn1)N1CC(=O)N2[C@H](CO)[C@@H](c3ccc(C#CC4CCCC4)cc3)[C@H]2C1 | i
0.1 | -22.8 | 4.7 | C[C@H](CO)N1C[C@H](C)[C@H](CN(C)S(=O)(=O)c2ccccc2)Oc2ccc(NS(=O)(=O)c3ccccc3)cc2C1=O | i
2.2 | 3.3 | -0.8 | CCCC#Cc1cnc2c(c1)C(=O)N([C@H](C)CO)C[C@H](C)[C@H](CN(C)C(=O)c1ccc(F)cc1)O2 | i
-7.2 | -10.2 | 1.6 | Cc1cccc(S(=O)(=O)N[C@@H]2CC[C@H](CCNC(=O)Nc3cc(F)ccc3F)O[C@H]2CO)c1 | i
-5.6&-0.7 | -13.9&-7.1 | 5.1&-0.7 | CN1C(=O)c2cc(NC(=O)c3cccc(F)c3)ccc2OC[C@H]2O[C@H](CC(=O)NCC3CCCCC3)CC[C@H]21 | i
0.1 | 9.1 | 1.1 | C[C@@H]1CCCCO[C@H](CN(C)C(=O)Nc2ccccc2)[C@H](C)CN([C@H](C)CO)C(=O)c2cc(NC(=O)Nc3ccc(F)cc3)ccc2O1 | i
-2.2 | 1.1 | 0.4 | C[C@H]1CN([C@@H](C)CO)C(=O)c2cccc(NC(=O)NC3CCCCC3)c2O[C@H]1CN(C)C(=O)NC1CCCCC1 | i
2.1 | -0.3 | 0.3 | Cc1ccc(S(=O)(=O)N(C)C[C@@H]2Oc3ccc(NC(=O)Nc4c(C)noc4C)cc3CC(=O)N([C@@H](C)CO)C[C@@H]2C)cc1 | i
-9.1 | -10.0 | 3.0 | C[C@@H]1CN([C@H](C)CO)C(=O)c2cccc(NC(=O)c3nc4ccccc4s3)c2O[C@@H]1CN(C)Cc1ccc2c(c1)OCO2 | i
-0.9 | 4.1 | -1.4 | COc1ccc(CN2C[C@H](O)COC[C@H]3O[C@H](CC(=O)N(C)C)CC[C@@H]32)cc1 | i
-1.6 | 1.8 | 1.1 | COc1ccc(CN(C)C[C@@H]2Oc3ccc(NS(=O)(=O)c4ccc(F)cc4)cc3CC(=O)N([C@H](C)CO)C[C@H]2C)cc1 | i
1.8 | 0.7 | 1.2 | Cc1ccc(Cl)cc1NC(=O)OCCN(C)C(=O)Nc1cc(Cl)ccc1C | i
-1.2 | 5.2 | -5.3 | O=C(C[C@@H]1C=C[C@H](NC(=O)c2ccccc2)[C@H](CO)O1)NCCc1ccncc1 | i

# Exported as tab-separated lines: 2 of the compounds above
SMILES	Ecoli rRNA inh	Ecoli rRNA inh OD600	Ecoli rRNA inh RFP	FGF22 binding
C[C@H]1CN([C@@H](C)CO)C(=O)c2cccc(NC(=O)NC3CCCCC3)c2O[C@H]1CN(C)C(=O)NC1CCCCC1	-2.2	1.1	0.4	i
Cc1ccc(S(=O)(=O)N(C)C[C@@H]2Oc3ccc(NC(=O)Nc4c(C)noc4C)cc3CC(=O)N([C@@H](C)CO)C[C@@H]2C)cc1	2.1	-0.3	0.3	i

# More compounds follow:
Ecoli rRNA inh | Ecoli rRNA inh OD600 | Ecoli rRNA inh RFP | SMILES | FGF22 binding
-1.2 | 0.1 | -3.0 | Cc1ccc(S(=O)(=O)Nc2ccc3c(c2)C(=O)N([C@@H](C)CO)C[C@H](C)[C@@H](CN(C)S(=O)(=O)c2cn(C)cn2)OCCCC[C@H](C)O3)cc1 | i
-19.7 | -6.2 | 1.0 | O=C(N[C@H](C(=O)N1CCC[C@H]1C(=O)NCCc1ccccc1Cl)c1ccccc1)c1ccco1 | i
4.4 | 1.3 | 0.3 | C[C@H](CO)N1C[C@H](C)[C@H](CN(C)C(=O)Nc2ccc(F)cc2)Oc2ccc(NC(=O)Cc3ccccc3)cc2CC1=O | i
-3.6 | 6.6 | -3.5 | C[C@H]1CN([C@@H](C)CO)C(=O)c2cc(-c3ccccc3)cnc2O[C@@H]1CN(C)C(=O)Cc1cccnc1 | i
-0.9 | 0.3 | -3.2 | C[C@H](O)C#Cc1ccc2c(c1)O[C@@H](CN(C)C)[C@@H](C)CN([C@@H](C)CO)S2(=O)=O | i
0.3 | -1.8 | 2.9 | C[C@H]1CN([C@@H](C)CO)C(=O)Cc2cc(NC(=O)Nc3ccc(F)cc3)ccc2O[C@H]1CN(C)Cc1ccc(-c2ccccc2)cc1 | i
3.3 | -0.2 | -3.5 | C[C@@H]1CN([C@H](C)CO)S(=O)(=O)c2ccc(C#C[C@@H](C)O)cc2O[C@H]1CN(C)C(=O)CN(C)C | i
-1.4 | 0.3 | -0.9 | N#C[C@H]1[C@H](c2ccc(C#Cc3cccc(F)c3)cc2)[C@H](CO)N1C(=O)C1CCCC1 | i
3.0 | 1.2 | 5.5 | O=C(c1cccc(F)c1)N1CC(=O)N2[C@@H](CO)[C@H](c3ccc(-c4ccccc4F)cc3)[C@@H]2C1 | i
3.8 | 17.4 | -2.0 | C[C@H](O)C#Cc1ccc2c(c1)O[C@@H](CN(C)C(=O)c1ccncc1)[C@@H](C)CN([C@@H](C)CO)S2(=O)=O | i
0.4 | 6.9 | 0.6 | C[C@@H]1CN([C@H](C)CO)C(=O)c2cc(Br)cnc2O[C@@H]1CN(C)C(=O)c1ccccc1F | i
1.6 | -8.9 | 3.5 | COc1ccc2c3c([nH]c2c1)[C@@H](CO)N(Cc1cccc(Cl)c1)CC31CCN(C(C)=O)CC1 | i
1.1 | -0.5 | 2.0 | Cc1ccc(S(=O)(=O)Nc2ccc3c(c2)C(=O)N([C@H](C)CO)C[C@H](C)[C@@H](CN(C)S(=O)(=O)c2c(C)noc2C)OCCCC[C@H](C)O3)cc1 | i
-3.1 | -5.3 | -1.1 | CCS(=O)(=O)N1CCCCN2[C@H](CO)[C@H](c3ccc(-c4cccc(C#N)c4)cc3)[C@H]2C1 | i
-8.8 | -22.4 | 2.7 | COc1ccc2c3c([nH]c2c1)[C@H](CO)N(CC1CC1)CC31CCN(S(=O)(=O)c2cccc(F)c2)CC1 | i
3.8 | 3.8 | 0.1 | C[C@@H]1CN([C@@H](C)CO)C(=O)c2c(c3ccccc3n2C)-c2ccccc2CO[C@H]1CN(C)S(=O)(=O)c1ccccc1 | i
-3.3 | -8.3 | 0.9 | COc1ccc(NC(=O)Nc2ccc3c(c2)C(=O)N([C@@H](C)CO)C[C@@H](C)[C@H](CN(C)Cc2ccncc2)OCCCC[C@@H](C)O3)cc1 | i
5.3 | 3.4 | 1.4 | C[C@H]1CCCCO[C@@H](CN(C)C(=O)Cc2ccccc2)[C@@H](C)CN([C@@H](C)CO)C(=O)c2cc(NC(=O)CCC(F)(F)F)ccc2O1 | i
-2.1 | -5.3 | -1.8 | C[C@@H]1CN([C@@H](C)CO)C(=O)c2cc(-c3cccc(C#N)c3)cnc2O[C@@H]1CN(C)Cc1cccnc1 | i
0.8 | 6.0 | -1.8 | O=C(N[C@H]1CC[C@@H](CCNS(=O)(=O)c2ccc(Cl)cc2)O[C@H]1CO)c1cnccn1 | i
-1.2 | 6.1 | -1.8 | CCC(=O)N(C)C[C@H]1Oc2ncc(C#C[C@H](C)O)cc2C(=O)N([C@@H](C)CO)C[C@@H]1C | i
-1.1 | -2.0 | -3.7 | C/C=C/c1ccc2c(c1)O[C@@H](CN(C)C(=O)COC)[C@@H](C)CN([C@H](C)CO)S2(=O)=O | i
-2.0 | -2.8 | 0.8 | C[C@H](CO)N1C[C@H](C)[C@H](CN(C)C(=O)C2CCCCC2)Oc2ncc(-c3cccc(C#N)c3)cc2C1=O | i
-4.0 | -7.9 | -0.4 | C[C@@H]1CN([C@@H](C)CO)S(=O)(=O)c2ccc(-c3cccc(C#N)c3)cc2O[C@@H]1CN(C)C(=O)C1CC1 | i
1.1 | 1.5 | 0.4 | C[C@H](CO)N1C[C@H](C)[C@H](CN(C)Cc2ccc(C(=O)O)cc2)Oc2ccc(NC(=O)Cc3ccccc3)cc2C1=O | i
-5.9 | -12.9 | -0.4 | C[C@H]1CN([C@@H](C)CO)C(=O)c2cc(-c3ccc(F)cc3)cnc2O[C@@H]1CN(C)C(=O)c1ccc(F)cc1 | i
-5.7 | -10.9 | -0.1 | O=C(Nc1ccc2c(c1)[C@@H]1C[C@@H](CC(=O)N3CCCCC3)O[C@@H](CO)[C@@H]1O2)c1ccc2c(c1)OCO2 | i
0.8 | -1.8 | -0.8 | C[C@@H]1CN([C@@H](C)CO)C(=O)c2cc(NC(=O)CCCN(C)C)ccc2O[C@@H]1CN(C)S(=O)(=O)c1cn(C)cn1 | i
-2.8 | -12.2 | 4.5 | COc1ccc2c3c(n(C)c2c1)[C@@H](CO)N(C)CC31CCN(C(=O)Nc2cccc(F)c2)CC1 | i
-0.2 | 8.6 | 0.4 | COc1ccc(S(=O)(=O)Nc2ccc3c(c2)C(=O)N([C@@H](C)CO)C[C@@H](C)[C@H](CN(C)S(C)(=O)=O)OCCCC[C@@H](C)O3)cc1 | i
4.8 | -4.6 | 0.8 | Cc1noc(C)c1S(=O)(=O)Nc1ccc2c(c1)CC(=O)N([C@@H](C)CO)C[C@H](C)[C@H](CN(C)C(=O)NC1CCCCC1)O2 | i
-3.3 | 2.8 | -2.1 | C[C@H](CO)N1C[C@H](C)[C@H](CN(C)S(=O)(=O)c2ccccc2)Oc2c(NC(=O)c3ccncc3)cccc2C1=O | i
0.5 | 2.8 | -1.5 | CC(C)NC(=O)Nc1ccc2c(c1)C(=O)N([C@H](C)CO)C[C@H](C)[C@H](CN(C)Cc1ccccc1)OCCCC[C@H](C)O2 | i
1.9 | 0.1 | -1.0 | O=C(C[C@@H]1CC[C@H]2[C@@H](COC[C@@H](O)CN2C(=O)c2ccncc2)O1)NCc1cc(F)cc(F)c1 | i
6.1 | 12.2 | 2.0 | COCC(=O)N1CCC2(CC1)CN(Cc1ccccn1)[C@@H](CO)c1[nH]c3cc(OC)ccc3c12 | i
1.2 | 5.4 | -0.6 | CN1C(=O)c2cc(NC(=O)c3ccccc3Cl)ccc2OC[C@@H]2O[C@@H](CC(=O)O)CC[C@H]21 | i
5.1 | 10.4 | -1.0 | COc1ccc(S(=O)(=O)Nc2ccc3c(c2)C(=O)N([C@@H](C)CO)C[C@H](C)[C@@H](CN(C)Cc2ccc4c(c2)OCO4)O3)cc1 | i
3.9 | 3.4 | 0.6 | C[C@@H]1CCCCO[C@@H](CN(C)CC2CCCCC2)[C@@H](C)CN([C@H](C)CO)C(=O)c2cc(NC(=O)Nc3cccc4ccccc34)ccc2O1 | i
-2.5 | -4.0 | 2.3 | C[C@@H]1CCCCO[C@H](CN(C)C(=O)Nc2ccc(C(F)(F)F)cc2)[C@@H](C)CN([C@@H](C)CO)C(=O)c2cc(NC(=O)c3ccncc3)ccc2O1 | i
2.1 | 1.6 | 0.0 | CN1C[C@H]2[C@@H](c3ccccc31)[C@@H](CO)N2C(=O)Nc1cccc(F)c1 | i

# Of the compounds above, these have a COOH group:
Ecoli rRNA inh | Ecoli rRNA inh OD600 | Ecoli rRNA inh RFP | SMILES | FGF22 binding
1.1 | 1.5 | 0.4 | C[C@H](CO)N1C[C@H](C)[C@H](CN(C)Cc2ccc(C(=O)O)cc2)Oc2ccc(NC(=O)Cc3ccccc3)cc2C1=O | i
1.2 | 5.4 | -0.6 | CN1C(=O)c2cc(NC(=O)c3ccccc3Cl)ccc2OC[C@@H]2O[C@@H](CC(=O)O)CC[C@H]21 | i

# The listing continues:
Ecoli rRNA inh | Ecoli rRNA inh OD600 | Ecoli rRNA inh RFP | SMILES | FGF22 binding
0.0 | -0.9 | 0.7 | O=C(C[C@H]1C=C[C@@H](NC(=O)C2CC2)[C@@H](CO)O1)Nc1nccs1 | i
0.3 | 7.2 | -1.3 | Cc1noc(C)c1S(=O)(=O)Nc1ccc2c(c1)C(=O)N([C@@H](C)CO)C[C@H](C)[C@H](CN(C)C(=O)Nc1ccccc1)O2 | i
1.1 | 1.8 | -1.1 | CCCN1C[C@@H](C)[C@@H](OC)CN(C)C(=O)c2ccc(NC(=O)Nc3cccc(OC)c3)cc2OC[C@@H]1C | i
1.8 | 6.6 | -3.4 | COC(=O)N(C)C[C@H]1OCc2ccccc2-c2ccccc2C(=O)N([C@@H](C)CO)C[C@@H]1C | i
5.4 | 4.6 | 0.1 | O=C(C1CCOCC1)N1C[C@H]2[C@@H](c3ccccc31)[C@H](CO)N2C(=O)c1ccccc1 | i
-1.0 | 0.6 | 3.5 | C[C@H](CO)N1C[C@H](C)[C@H](CN(C)Cc2ccccc2F)Oc2cc(C3=CCCCC3)ccc2S1(=O)=O | i
